# Source: PubChem BioAssay (National Center for Advancing Translational Sciences (NCATS))
# nsP2pro inh – blocks chikungunya virus nsP2 protease peptide cleavage; Q8JUX6; Potency, µM (top dose mostly 24.9 µM), inactives show at the highest dose activity change, negative = inhibition, actives largely listed as inhibitors; FRET peptide cleavage, nsP2pro, fluorescence 1 h; 31,000 compounds, 1.1% hits; active means well fitted inhibition curve with a large enough effect; inconclusive means small, poorly fitted or top-dose-only effect; inactive means no such curve, though single readings can be large or run the other way; also: nearly all actives have a fitted effect of over 60% in size; a reference inhibitor and vehicle were the controls
# Target sequence (Q8JUX6 whole entry, looked up): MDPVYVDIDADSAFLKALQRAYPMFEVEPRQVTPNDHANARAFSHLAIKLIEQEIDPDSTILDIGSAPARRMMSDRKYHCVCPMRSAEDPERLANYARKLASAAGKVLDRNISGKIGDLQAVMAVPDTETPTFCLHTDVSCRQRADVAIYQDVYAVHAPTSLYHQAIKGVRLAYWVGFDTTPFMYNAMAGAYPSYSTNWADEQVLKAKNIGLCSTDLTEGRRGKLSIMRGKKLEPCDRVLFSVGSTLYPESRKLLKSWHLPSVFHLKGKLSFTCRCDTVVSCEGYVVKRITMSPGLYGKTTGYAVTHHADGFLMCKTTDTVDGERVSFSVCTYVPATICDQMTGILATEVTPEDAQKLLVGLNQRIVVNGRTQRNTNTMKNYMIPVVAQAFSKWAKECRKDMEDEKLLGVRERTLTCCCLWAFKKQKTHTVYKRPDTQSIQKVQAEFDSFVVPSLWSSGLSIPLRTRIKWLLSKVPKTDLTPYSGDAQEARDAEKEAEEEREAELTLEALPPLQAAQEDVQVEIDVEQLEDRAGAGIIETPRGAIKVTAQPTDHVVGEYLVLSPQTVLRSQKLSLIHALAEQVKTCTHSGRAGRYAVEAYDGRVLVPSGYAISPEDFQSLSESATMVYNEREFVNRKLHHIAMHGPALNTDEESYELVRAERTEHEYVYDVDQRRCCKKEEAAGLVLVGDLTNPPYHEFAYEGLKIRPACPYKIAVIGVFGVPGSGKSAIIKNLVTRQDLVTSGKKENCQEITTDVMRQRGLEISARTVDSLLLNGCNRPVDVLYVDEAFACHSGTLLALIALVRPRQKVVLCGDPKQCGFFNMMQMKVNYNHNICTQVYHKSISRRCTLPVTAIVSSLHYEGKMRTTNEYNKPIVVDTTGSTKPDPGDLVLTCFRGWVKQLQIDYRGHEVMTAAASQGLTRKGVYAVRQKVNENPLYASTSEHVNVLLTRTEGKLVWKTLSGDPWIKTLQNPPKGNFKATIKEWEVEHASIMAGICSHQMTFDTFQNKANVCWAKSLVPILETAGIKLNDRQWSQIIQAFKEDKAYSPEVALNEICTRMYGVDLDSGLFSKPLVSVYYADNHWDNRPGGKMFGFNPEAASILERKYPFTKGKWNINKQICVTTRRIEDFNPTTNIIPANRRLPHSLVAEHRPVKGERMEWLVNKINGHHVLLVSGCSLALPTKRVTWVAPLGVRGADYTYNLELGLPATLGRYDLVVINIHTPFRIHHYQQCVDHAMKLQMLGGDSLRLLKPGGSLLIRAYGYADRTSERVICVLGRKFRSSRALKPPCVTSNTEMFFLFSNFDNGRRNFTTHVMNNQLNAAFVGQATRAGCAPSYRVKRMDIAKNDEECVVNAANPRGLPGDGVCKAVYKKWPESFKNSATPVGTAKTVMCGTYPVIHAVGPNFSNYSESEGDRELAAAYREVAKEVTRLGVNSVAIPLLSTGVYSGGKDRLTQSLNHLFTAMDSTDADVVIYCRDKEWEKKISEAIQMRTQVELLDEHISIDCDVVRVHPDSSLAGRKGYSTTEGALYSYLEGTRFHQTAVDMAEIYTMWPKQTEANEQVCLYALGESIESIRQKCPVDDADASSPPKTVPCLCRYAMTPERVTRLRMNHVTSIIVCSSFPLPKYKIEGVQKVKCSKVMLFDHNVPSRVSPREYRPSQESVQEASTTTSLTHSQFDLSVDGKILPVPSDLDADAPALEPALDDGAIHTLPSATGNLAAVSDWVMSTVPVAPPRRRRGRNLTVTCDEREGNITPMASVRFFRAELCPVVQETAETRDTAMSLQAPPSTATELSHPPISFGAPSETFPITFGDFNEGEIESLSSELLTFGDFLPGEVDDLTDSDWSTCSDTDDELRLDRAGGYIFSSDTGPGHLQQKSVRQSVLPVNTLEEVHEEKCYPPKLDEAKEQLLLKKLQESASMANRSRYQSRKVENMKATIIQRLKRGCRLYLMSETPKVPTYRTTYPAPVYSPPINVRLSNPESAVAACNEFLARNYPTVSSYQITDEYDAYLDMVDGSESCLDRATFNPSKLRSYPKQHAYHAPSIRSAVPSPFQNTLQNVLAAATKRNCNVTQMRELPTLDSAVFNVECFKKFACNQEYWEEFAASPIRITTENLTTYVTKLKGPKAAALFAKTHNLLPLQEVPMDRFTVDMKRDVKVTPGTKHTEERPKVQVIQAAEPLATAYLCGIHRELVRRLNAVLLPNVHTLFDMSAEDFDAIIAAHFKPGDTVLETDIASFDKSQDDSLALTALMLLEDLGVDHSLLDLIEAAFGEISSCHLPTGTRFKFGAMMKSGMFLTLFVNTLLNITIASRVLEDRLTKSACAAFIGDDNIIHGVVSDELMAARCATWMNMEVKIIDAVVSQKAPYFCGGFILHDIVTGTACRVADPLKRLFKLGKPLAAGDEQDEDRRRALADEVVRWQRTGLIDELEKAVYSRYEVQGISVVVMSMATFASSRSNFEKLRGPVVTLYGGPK
# Numbers without * were called inactive; i = inactive; u = inconclusive; & = joins results of further samples; [ ] = remark or other dose. % is scaled to controls: 0 for no effect and ±100 for the full control effect; potency is read from the fitted curve at half-maximal effect. These rows are one share of the data; count on the stated rates, not on these rows.
SMILES,nsP2pro inh
CC(=O)N1CCC(N2C[C@H](O)C[C@H]2c2nc(CS(=O)(=O)c3ccc(C)cc3)no2)CC1,-5%
Cc1cccc(CN2CC=C(c3noc(CCC(=O)Nc4ccc(C)c(F)c4)n3)CC2)c1,-4%
CC1=C(c2ccc(F)cc2)S(=O)(=O)N=C1N1CCC(C(=O)NCCc2ccccc2C)CC1,-18%
COC(=O)Nc1cc(C2CC2)nn1C,-8%[39.2 µM]
Cc1cccc(NC(=O)CSc2nc(C)c(Cc3ccccc3)c(=O)[nH]2)c1,-16%
O=C(N[C@H]1N=C(c2ccccc2F)c2cccc3c2N(CC3)C1=O)c1cc2ccccc2[nH]1,-13%
Cc1ccc(Cl)cc1-n1ncc2c(Nc3ccc4c(c3)OCCO4)ncnc21,-9%
CCc1ccccc1N1C(=O)N(Cc2cc(=O)n3ccccc3n2)c2ccccc2S1(=O)=O,7%
CCCS(=O)(=O)Nc1ccc([C@H]2OCC(=O)N(CC(=O)N(C)C)[C@@H]2CO)cc1,-9%[39.2 µM]
CCc1ccc(NC(=O)c2ccc(F)c(S(=O)(=O)NCCc3ccc(OC)c(OC)c3)c2)cc1,-12%
CN1c2cc(Cl)ccc2-c2nc(SCC(=O)Nc3ccc(F)cc3F)ncc2S1(=O)=O,-12%
Cn1ccc(C(=O)NCc2nnc3n2C(C(=O)N2CCN(c4ncccn4)CC2)CC3)n1 (configuration not stated),-5%
CC(=O)c1c(C)cc(O)cc1O[C@@H]1O[C@H](CO)[C@@H](O)[C@H](O)[C@H]1O,54%
CC(NC(=O)CC(=O)O)c1nc2ccccc2c(=O)[nH]1 (configuration not stated),u
CCCNC(=O)Nc1cc(C(=O)NCc2cccc(OCC)c2)ccc1N1CCCC1,-19%
CCN(CC)Cc1ccc2cc(COC(=O)Nc3ccc(C(=O)NO)cc3)ccc2c1,159%&54%&115%[activator]
CCOc1ccccc1-c1nnc2n1N=C(c1ccc(OC)cc1)CS2,i
Cc1nc(N2CCOCC2)c2c(C(=O)N3CCN(c4cccc(C(F)(F)F)c4)CC3)c(C)oc2n1,-12%
CCc1cn(C[C@@H](C(=O)O)N(CC)CC)c(=O)[nH]c1=O,-4%[39.2 µM]
CCOc1ccc(N(CC)C(=O)C2CCN(S(=O)(=O)c3cccc4nonc34)CC2)cc1,-21%
COc1cc(C2OCC3(O)C(c4ccc(O[C@@H]5O[C@H](CO)[C@@H](O)[C@H](O)[C@H]5O)c(OC)c4)OCC23O)ccc1O (some centres not stated),-7%[10 µM]
Cc1oc2ncnc(N3CCCCC3)c2c1C(=O)N1CCN(c2cccc(Cl)c2)CC1,-7%
Oc1cccc2c(-c3nn[nH]n3)ccnc12,i
Cc1cc(NC(=O)C(C)(C)C)cc(-c2nc3ncccc3o2)c1O,26%
O=S(=O)(c1ccc2nc(Cl)c(Cl)nc2c1)N1CCN(S(=O)(=O)c2c(F)cccc2F)CC1,i

SMILES,nsP2pro inh
CCCCN(CCCNC(=O)c1c(C)oc2nc[nH]c(=O)c12)Cc1ccccc1,-30%
Cc1oc(-c2ccc(Cl)cc2)nc1CN1CCCC(C(=O)NCc2ccccc2)C1 (configuration not stated),-8%
CC1CCc2nc3ncn(Cc4cccc(F)c4)c(=O)c3cc2C1 (configuration not stated),-10%
O=C(Nc1nnc(SCc2cc(=O)n3cc(Cl)ccc3n2)s1)c1cccc(F)c1,-11%
CCCCNc1nc(C)nc2c1nc(-c1ccccc1)n2CCCCN(CC)CC,i
c1ccc(-c2oc3ncnc(NC[C@@H]4CCCO4)c3c2-c2ccccc2)cc1,34%[activator]
CC(C)N(Cc1ccccc1)c1ncnc2c1nnn2C,-12%
COC[C@@]12CC[C@@H](N3CCOCC3)C[C@H]1CCN(c1nccc(N)n1)C2,-6%
CN(C)C(=O)N1CCC2(CC1)CC(c1cccc(C(F)(F)F)c1)=NO2,0%
Cc1nc(-c2ccco2)cc([C@H]2CN3CC[C@H]2C[C@@H]3CNC(=O)C2CCCCC2)n1,u
CCc1ccc(N2CC(c3nnc(NC(=O)c4ccco4)s3)CC2=O)cc1 (configuration not stated),-21%
CC(C)c1nn2c(=O)cc(COC(=O)c3ccccc3NC(=O)c3cccs3)nc2s1,-12%
COc1ccc(NC(=O)c2oc3ccccc3c2NC(=O)c2cc(=O)c3c(C)cc(C)cc3o2)cc1,-16%
COCC1CN(C(C)=O)CC12CCN(C(=O)c1nn(C)c3ccccc13)CC2 (configuration not stated),-6%
CC(C)(C)CC(=O)N1CCC2(CC1)N(c1ccccc1)C(=O)CS2(=O)=O,3%
C[C@H]1[C@@H](O)[C@H](O)C2[C@]3(C)C([C@@H](O)[C@H]4OC(=O)[C@@H]1[C@@]24C)[C@](C)(O)C=C[C@H]3O[C@@H]1O[C@H](CO)[C@@H](O)[C@H](O)[C@H]1O (some centres not stated),0%[10 µM]
Cc1cc(C2CCCCC2)n(O)c(=O)c1,14%
O=C(Cn1ncc2c3ccccc3n(Cc3ccc(Cl)cc3)c2c1=O)NCCCc1ccccc1,-12%
CN1C(=O)C(Cc2ccc3ccccc3c2)N=C(c2ccc(O)cc2)c2cc(Cl)ccc21 (configuration not stated),12%
CCNC(=O)c1ccc(-c2ccc3ncnc(NCc4nccs4)c3c2)o1,-6%
O=C1CC(c2noc(Cc3ccc(F)cc3)n2)CN1c1ccc(F)cc1 (configuration not stated),1%
COc1ccccc1CCN1CCCC(CN(C)C(=O)Nc2ccccc2)C1 (configuration not stated),4%
CCC(=O)N1Cc2ccccc2OC2(CCN(C(C)C)CC2)C1,i
COc1ccc(-n2c(C)cc(-c3nnc4n3CCCCC4)c2C)cc1,-28%
Cc1ccccc1-c1noc(-c2ccc(N3CCOCC3)c([N+](=O)[O-])c2)n1,-19%

# 3 entries already listed, sorted by SMILES length, high to low:
SMILES,nsP2pro inh
COc1ccc(NC(=O)c2oc3ccccc3c2NC(=O)c2cc(=O)c3c(C)cc(C)cc3o2)cc1,-16%
O=C1CC(c2noc(Cc3ccc(F)cc3)n2)CN1c1ccc(F)cc1 (configuration not stated),1%
CC1CCc2nc3ncn(Cc4cccc(F)c4)c(=O)c3cc2C1 (configuration not stated),-10%

# Among those listed so far, these have two or more sulfur atoms.
SMILES,nsP2pro inh
CN1c2cc(Cl)ccc2-c2nc(SCC(=O)Nc3ccc(F)cc3F)ncc2S1(=O)=O,-12%
O=S(=O)(c1ccc2nc(Cl)c(Cl)nc2c1)N1CCN(S(=O)(=O)c2c(F)cccc2F)CC1,i
O=C(Nc1nnc(SCc2cc(=O)n3cc(Cl)ccc3n2)s1)c1cccc(F)c1,-11%
CC(C)c1nn2c(=O)cc(COC(=O)c3ccccc3NC(=O)c3cccs3)nc2s1,-12%

# Additional compounds.
SMILES,nsP2pro inh
C[C@@H]1O[C@@H](O[C@H]2[C@H](OC(=O)[C@]34CCC(C)(C)C[C@H]3C3=CCC5[C@@]6(C)C[C@@H](O)[C@@H](O[C@@H]7O[C@H](CO)[C@@H](O)[C@H](O)[C@H]7O)[C@@](C)(CO)C6[C@H](O)C[C@@]5(C)[C@]3(C)CC4)OC[C@H](O)[C@@H]2O)[C@H](O)[C@H](O[C@@H]2OC[C@](O)(CO)[C@H]2O)[C@H]1O[C@@H]1OC[C@@H](O)[C@H](O[C@H]2O[C@H](C)[C@@H](O)[C@H](O)[C@@H]2O)[C@H]1O (some centres not stated),-4%[5.1 µM]
CCC(Oc1ccccc1)C(=O)N[C@@H]1C(=O)N2[C@@H]1SC(C)(C)[C@@H]2C(=O)O (some centres not stated),-16%[39.2 µM]
CC1CCC2C(C(=O)O)=CC3C(O)C(C)(C)CC123 (configuration not stated),-13%
CC(C)NC(=O)C[C@@H]1C[C@H]2O[C@H](CNCc3ccccc3C(F)(F)F)[C@@H](O)[C@H]2O1,i
Cc1cnc(-c2ccccc2C(C)C)nc1NCC1CCN(c2cccnc2)C1 (configuration not stated),i
COc1ccc(C(=O)Nc2ccc(N(C)Cc3ccccc3)c(C(=O)O)c2)cc1,5µM*
COc1ccc2[nH]cc(CCNC(=O)Nc3ccc(F)cc3)c2c1,9%
CCN(CC)Cc1cc(C2CC(=O)Nc3n[nH]c(C(=O)O)c32)ccc1OC (configuration not stated),i
CC1(C)C2CC(OC3OC(COC4OCC(O)(CO)C4O)C(O)C(O)C3O)C1(C)CC2O (configuration not stated),19%[10 µM]
CC(C)CC1NC(=O)C(C)NC(=O)C(CC(C)C)OC(=O)CCCNC1=O (configuration not stated),u
CCN1CCN(C(=O)CCN(CC(C)C)c2nc(-c3cccs3)nc3ccccc23)CC1,i
Cc1cc(C)nc(NC(=S)N2CCN(c3nc(C)cnc3C)CC2)c1,1%
O=C1CCCCCN1C1CCN(Cc2ccsc2)CC1,0%[39.2 µM]
Cc1ccc(-c2ccc(=O)n(CC(=O)NCCc3ccncc3)n2)cc1,-10%
CCN1CCN(C(=O)C2CCc3nnc(CNC(C)=O)n32)CC1 (configuration not stated),-8%[39.2 µM]
COc1ccc(CCN2C(=O)c3[nH]nc(-c4ccccc4O)c3C2c2cccc(OC)c2)cc1 (configuration not stated),20%
CC(C)Cc1nn2c(=O)cc(COC(=O)c3cccc(NC(=O)CCc4ccccc4)c3)nc2s1,-12%
O=S(=O)(c1ccccc1F)N1CC(c2nc(Cc3ccccc3)no2)C1,i
COc1cccc(C2=Nn3c(nnc3-c3ccccc3O)SC2)c1,2%
NC(=O)[C@@H]1C[C@H](Oc2cccnc2)CN1C(=O)C1CCCCC1,-10%
O=C(OCC#CCSc1nnc(-c2cccc3ccccc23)o1)c1ccccc1F,i
CCCCc1ccc(-c2ccc(=O)n(CC(=O)NCCc3ccccc3)n2)cc1,-5%
Cc1cnc(CC2CCN(S(=O)(=O)c3ccccc3)CC2)n1Cc1ccc(F)cc1,i
O=C(Nc1ccc2oc(-c3cc(Br)ccc3Cl)nc2c1)c1cc2ccccc2o1,-18%
CC[C@@H]1C(=O)O[C@]23C=C[C@@H]4C(C(=O)OC)=CO[C@H](O[C@@H]12)[C@@H]43,56%

SMILES,nsP2pro inh
COc1ccc(S(=O)(=O)NCc2cccn2Cc2cc(C)ccc2C)cc1OC,-14%
CCCNC(=O)c1c(NC(=O)c2ccccc2F)sc2c1CCCCC2,-16%
O=c1[nH]cnc2c1ncn2[C@H]1C[C@H](O)[C@@H](CO)O1,-23%
CC(=O)OC/C(=C/C(=O)O)CC[C@@H]1C(C=O)=CC[C@@H]2C(C)(C)CCC[C@@]12C,4%
C[C@@H]1CN(c2ccc(C(=O)N3CCC(N4CCOCC4)CC3)cn2)C[C@H](C)O1,-8%
Cc1cc(C)cc(NC(=S)N[C@H]2CO[C@H]3[C@@H]2OC[C@H]3OC(=O)NC2CCCCC2)c1,-26%[39.2 µM]
Cc1ccccc1Cn1c(SCc2ccc(C(=O)NC3CCCC3)cc2)nc2ccncc21,21%
O=C(NCCN1CCOCC1)c1cc2c(Oc3ccc(NC(=O)C4(C(=O)Nc5ccc(F)cc5)CC4)cc3)ccnc2[nH]1,24%
C=CC(C)(O)CC/C=C(\C)COC1O[C@H](CO)[C@@H](O)[C@H](O)[C@H]1O (some centres not stated),116%[activator]
Nc1nc(NCc2ccccc2)c2[nH]cnc2n1,37%[activator]
O=C(NCCS(=O)(=O)N1CCN(c2ccccc2F)CC1)C1CC(=O)N(c2ccc(F)cc2)C1 (configuration not stated),-23%
O=S(=O)(Nc1ccccn1)c1ccc(N=Cc2c(O)[nH]c3ccc4ncsc4c23)cc1,u
Cc1nc(N(C)C2CCCCC2)ncc1C(C)NC(=O)C1(CO)CC1 (configuration not stated),0%
CN1CCN(c2ccc(Nc3nn4c(=O)c5ccccc5nc4s3)cc2)CC1,i
COc1ccccc1/C=C/c1onc(C)c1S(=O)(=O)N1CCC(C(=O)N2CCC(C)CC2)CC1,-15%
Cc1ccc(C)c(-c2nn(CC(=O)Nc3cc(F)ccc3F)c(=O)c3c2CCCC3)c1,-21%
COC(=O)N1CCN(Cc2cc(=O)c3cc(F)ccc3[nH]2)CC1,-2%
COc1ccccc1C(=O)N1CCC2(CC1)C(=NC1CCCCC1)NC(=O)N2c1cccnc1,-2%
Cc1ccc(Nc2c(-c3ccc(N(C)C)cc3)nc3nc[nH]n23)cc1,-12%
Clc1ccc(C(OCCN2CCCCC2)c2ccccc2)cc1 (configuration not stated),-4%
Cc1cccc(-c2noc([C@@H]3Cc4nc[nH]c4CN3C(=O)COCC(=O)O)n2)c1,i
C=C(C(=O)O)C1CC(O)C2(C)CCCC(=C)C2C1 (configuration not stated),u
CCNc1ncc(CN2CCN(c3ccncc3)CC2)cn1,-1%
Cc1cc(C(=O)N2CCC3(CCCN(C4CCOCC4)C3=O)C2)no1 (configuration not stated),9%
CCN(CC)c1cc2c(cc1S(=O)(=O)Nc1ccc(C)c(C)c1)CCC(=O)N2,-5%

SMILES,nsP2pro inh
CCNC(=O)CC1C(=O)N(c2ccc(C)cc2)C(=O)N1Cc1ccc(C)cc1 (configuration not stated),-13%
Cc1ccc(S(=O)(=O)Cc2nc(-c3ccc(C(=O)NCc4ccccc4)cc3)oc2C)cc1,-16%
Nc1cccc(CNc2ccc(S(=O)(=O)Nc3nccs3)cc2)c1O,i[5.1 µM]
COc1ccc(-c2ccc3ncnc(NCCc4cnc[nH]4)c3c2)cc1OC,i
CCCCCCCCCCCCCCCCOc1nc2ccc(C)cc2c(=O)o1,-2%
COc1ccc(CCNC(=O)C2(C)CCOCC2)cc1,0%[39.2 µM]
C=CC(=O)Nc1cc(-n2c(=O)ccc3cnc4ccc(-c5ccc(NS(C)(=O)=O)cc5)cc4c32)ccc1C,245%[activator]
COC(=O)C(C)NC(=O)N1CCN(c2nnc(C)c3c(C)n(-c4ccc(Cl)cc4)nc23)CC1 (configuration not stated),-15%
